D2 agonist: human D2 receptor agonism in beta-arrestin assay; DiscoveRx PathHunter D2 beta-arrestin, luminescence, 90 min; 100% = 57 uM dopamine signal; activation, % (concentration not given with the values); actives 0.084% (n = 360,000); in the data active = activation above about 40%; inconclusive = about 15% to 40%; inactive = below about 15%; further: compound concentration not given in the record; the text of the record calls up to 30% inactive
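Agonist mode: compounds alone added to overnight-plated D2 PathHunter cells for 90 min at 37 C, with 57 uM final dopamine (EC100) defining full response. Beta-arrestin recruitment detected by chemiluminescent reagent, read after 1 h at ambient temperature.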
Six1-Eya2 inh: Six1/Eya2 interaction inhibition; Q15475+O00167; AlphaScreen GST-Six1/His-Eya2 binding, biochemical; active compounds read low; control for the full effect not named in the record; activity change, % (test concentration not listed); actives 0.56% (n = 360,000); AID 651725; in the data active = activity change below about -65%; inconclusive = about -30% to -65%; inactive = above about -30%; further: on the % scale 0 is the no-effect control and ±100 the full control effect
Target sequence (O00167 whole entry, looked up): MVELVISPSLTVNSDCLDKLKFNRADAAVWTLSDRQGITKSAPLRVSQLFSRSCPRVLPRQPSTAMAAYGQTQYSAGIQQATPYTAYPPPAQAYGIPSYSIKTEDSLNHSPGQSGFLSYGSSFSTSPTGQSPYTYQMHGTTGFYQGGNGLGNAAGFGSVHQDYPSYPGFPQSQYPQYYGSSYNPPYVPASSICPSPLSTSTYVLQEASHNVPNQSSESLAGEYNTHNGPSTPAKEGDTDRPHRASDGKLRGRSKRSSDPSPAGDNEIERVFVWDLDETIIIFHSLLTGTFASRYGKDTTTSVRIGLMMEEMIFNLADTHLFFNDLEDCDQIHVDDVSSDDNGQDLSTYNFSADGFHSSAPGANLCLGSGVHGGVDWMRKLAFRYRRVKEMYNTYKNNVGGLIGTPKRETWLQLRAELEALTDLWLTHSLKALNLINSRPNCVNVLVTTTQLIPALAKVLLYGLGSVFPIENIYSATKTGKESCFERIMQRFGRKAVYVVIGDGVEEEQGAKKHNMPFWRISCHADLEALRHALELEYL
Target sequence (Q15475 whole entry, looked up): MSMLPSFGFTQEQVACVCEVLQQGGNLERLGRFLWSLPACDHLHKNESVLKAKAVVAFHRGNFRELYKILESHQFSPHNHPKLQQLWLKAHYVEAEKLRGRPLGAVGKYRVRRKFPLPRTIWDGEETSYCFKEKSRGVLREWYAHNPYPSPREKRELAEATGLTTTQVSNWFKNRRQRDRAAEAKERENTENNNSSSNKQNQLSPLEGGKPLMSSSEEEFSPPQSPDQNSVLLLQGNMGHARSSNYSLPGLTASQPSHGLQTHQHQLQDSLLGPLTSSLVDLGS
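Compounds are tested against tagged Six1 and Eya2 proteins bridged by glutathione donor and nickel acceptor beads; after a one-hour incubation at 37 °C without light, AlphaScreen emission is recorded.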
CtBP-E1A blk: CtBP/E1A binding inhibition | AlphaScreen GST-E1A/His-CtBP binding, 1536-well; active compounds read low; control for the full effect not named in the record | activity change, % (no concentration beside the values) | actives 0.49% (n = 340,000) | AID 651724; in the data active means activity change below about -65%; inconclusive means about -30% to -65%; inactive means above about -30%; further: on the % scale 0 is the no-effect control and ±100 the full control effect
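AlphaScreen with 125 nM GST-E1A and 125 nM His-CtBP (5X stocks) in Tris pH 8.0, 300 mM NaCl, BSA, Tween 20, TCEP. Compounds preincubated 2 h at 37 deg C, then glutathione donor/nickel acceptor beads added for 1 h at 37 deg C in dark.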
D2 PAM: potentiates the human D2 dopamine receptor allosterically | actives 0.23% (n = 360,000) | DiscoveRx D2 beta-arrestin cells, luminescence, 90 min; 100% = 57 uM dopamine signal | P14416 | potentiation, % (test concentration not listed) | AID 624464; active = potentiation of 50% or more; inconclusive = 30% to 50%; inactive = 30% or less;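 further: compound concentration not given in the record; tested on top of an EC20 dose of dopamine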
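PathHunter beta-arrestin assay in DiscoveRx D2 cells. Compounds were added with an EC20 of dopamine (50 nM final) for 90 min at 37 deg C. Luminescence was read 1 h after detection reagent, with 57 uM dopamine as the EC100 control.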
TRPML1 agonist: human mucolipin-1 channel agonism. Q9GZU1. TRPML1-expressing cells, Ca2+ dye fluorescence, FDSS; host cell line not named in the record; reference of the full effect not given here. activation, % (no concentration beside the values). actives 0.12% (n = 410,000); in the data active = activation above about 50%; inconclusive = about 30% to 50%; inactive = below about 30%; further: 0% is about no effect; the text of the record puts the active cut at 80%
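Calcium fluorescence on an FDSS kinetic reader gave the read-out. Tet-induced TRPML1-DL cells were plated overnight, dye-loaded (Ca8 with quencher, 45-90 min, room temperature, dark), then read 110 s after compound addition, and again 110 s after 4uM final 54-4 (EC80).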
PINK1 modulator: modulators of PINK1 expression | PINK1 immunofluorescence, high-content cytometry, 24 h | Potency, µM (doses to about 76.6 µM), for the others: at the top dose activation (PINK1 increase), actives largely listed as activators | actives 0.2% (n = 410,000); active = well fitted activation curve with a large enough effect; inconclusive = small, poorly fitted or top-dose-only effect; inactive = flat fitted curve, though single readings scatter; cell line not stated here;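 further: potency means the concentration at half of the fitted maximal effect; % of control where 0% means no effect; nearly all actives have a fitted effect of over 65% in size; a mitochondrial uncoupler was the plate control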
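Measures PINK1 amount and localization on or inside mitochondria by immunofluorescence. Stable cells get compounds at 5 concentrations for 24 hours before fixation and staining; CCCP controls included.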
* hit, by the source's call; ? = inconclusive; / = no result given; & = joins results of further samples; [ ] = dose if it differs, or a comment. This is a random part of the collection, and some 1.3% of all compounds hit somewhere here.

Sequence of screens: D2 agonist	Six1-Eya2 inh	CtBP-E1A blk	D2 PAM	TRPML1 agonist	PINK1 modulator
- Cc1cc2nc(-c3cccc(Br)c3)c(CC(C)(C)C)n2c(C)c1Br
 : 3.2	5	10	1	3.4	?
- COc1ccc(NC(=O)Nc2ccccc2F)cc1
 : -3.0	0	13	-2	-0.3	/
- CCCCN(C(=O)c1cccs1)c1c(N)n(Cc2ccccc2)c(=O)[nH]c1=O
 : -6.9	3	11	-8	0.7	-1.0%
- Cc1ccc(S(=O)(=O)N2CCCCC2)cc1NC(=O)CSc1nccn1C
 : 2.4	2	0	1	0.5	1.4%
- CC1CCN(CCOc2ccccc2-c2ccccc2)CC1
 : -5.2	-1	8	-14	-0.8	1.2%
- CCN(CC)CCN1C(=O)C(=O)/C(=C(/O)c2ccc(F)cc2)C1c1cccnc1 (configuration not stated)
 : -2.3	-4	/	-3	0.1	0.1%
- Cc1ccc(/C=C2\CCC(C3CCCC3)C2=O)cc1 (configuration not stated)
 : 5.3	10	7	-16	0.1	21%
- CC(NS(C)(=O)=O)C(c1cccs1)N1CCN(C)CC1 (configuration not stated)
 : -1.1	-1	0	-7	2.5	2.4%[38.3 µM]
- O=C1Nc2cc(C(=O)NCCCN3CCCC3)ccc2S/C1=C\c1ccccc1
 : 4.2	-10	/	-2	-0.3	-1.1%
- CC1(Cc2ccc(Cl)c(Cl)c2)C(=O)Nc2c(Cl)ccc(Cl)c21 (configuration not stated)
 : 6.4	-1	3	-1	0.1	8.2%
- CC(CC(=O)O)C(=O)c1ccc(Cl)c([N+](=O)[O-])c1 (configuration not stated)
 : -7.3	4	-6	-1	-1.5	1.3%
- O=C1c2cccc3cccc(c23)N1CN1CCN(c2ccccn2)CC1
 : 9.4	12	1	-2	0.8	0.9%
- CCN(CC)S(=O)(=O)c1cccc(C(=O)NCC2(N3CCOCC3)CCCCC2)c1
 : -4.0	5	-19	-2	-0.1	2.4%
- Cc1cccc(NC(=O)c2ccc(COc3ccc(Cl)cc3Cl)o2)n1
 : -2.9	26	4	-12	1.7	3.8%
- c1ccc(-c2nnc3sc(CN4CCc5ccccc54)cn23)cc1
 : -0.6	-4	-5	3	2.8	1.9%[38.3 µM]
- CCOC(=O)C1(CCOc2ccccc2)CCN(Cc2ccc(O)c(OC)c2)CC1
 : -4.7	-5	-11	-28	1.1	-0.4%
- COc1ccc(-c2nnc(SCc3ccccc3F)o2)cc1OC
 : 1.0	-2	4	-5	0.8	2.1%
- CCCC(=O)N1CCC1(C)C(=O)Nc1ccccc1-c1ccccc1 (configuration not stated)
 : -4.7	0	2	-3	-1.2	-0.7%
- CCOc1ccc(NC(=O)NCCN2C(C)CCCC2C)cc1 (configuration not stated)
 : -1.3	0	-6	2	0.8	-8.8%[38.3 µM]
- COc1cccc(OC)c1C(=O)OCC(=O)NCCNC(=O)COC(=O)c1c(OC)cccc1OC
 : -0.2	-1	-1	-9	-0.4	0.0%
- COc1ccc(-c2nc(NC(C)=O)sc2-c2ccc(OC)cc2)cc1
 : -2.8	10	2	-1	3.1	7.5%
- Cc1ccccc1/C=N/NC(=O)c1sccc1C
 : -2.0	10	9	-26	1.3	11%
- Cc1noc(C(=O)N(C)c2ccccc2)c1Cl
 : -6.0	11	7	-2	/	2.3%
- COc1ccc2cc(CCNC(=O)c3ccc(Br)o3)c(=O)[nH]c2c1
 : -3.6	-5	-6	-8	-0.6	0.0%
- Cc1cc2c(cc1S(=O)(=O)Nc1c(C)cccc1C)n(C)c(=O)c(=O)n2C
 : -3.3	-1	0	0	0.9	-0.8%
- O=S(=O)(NCCOc1ccccc1Cl)c1ccc2oc3ccccc3c2c1
 : 1.5	5	6	3	-0.4	-0.7%
- CCC(c1n[nH]c(=S)n1-c1ccccc1)N(C)C (configuration not stated)
 : 0.1	7	6	-18	0.3	0.3%
- CCN=c1scc(-c2ccccc2)n1/N=C/c1ccccn1
 : -1.9	?	?	-1	1.5	-0.2%
- Cc1cccc2cc(COC(=O)c3cccs3)c(=O)[nH]c12
 : -5.6	0	7	-6	-0.7	11%
- O=C(CN(Cc1ccco1)C(=O)CCC(=O)Nc1ccccn1)NCc1ccccc1
 : -2.5	-3	0	-1	0.8	-0.6%
- COc1ccc(NC(=O)C2CCCN(c3nn4c(=O)cc(C)nc4s3)C2)c(OC)c1 (configuration not stated)
 : -3.1	-3	-2	0	0.2	-0.9%
- CC(C)c1ccccc1-n1c(SCC(=O)N2CCc3ccccc3C2)nc2ccccc2c1=O
 : -0.2	-7	-5	11	4.5	0.2%
- Cc1cc(NC(=O)COC(=O)C2CC(=O)N(c3ccccc3)C2)no1 (configuration not stated)
 : -2.6	-7	5	-2	-0.1	0.0%
- COCCN(CCOC)S(=O)(=O)c1ccc(C(=O)Nc2nc(C)c(C(C)=O)s2)cc1
 : -3.4	3	1	-13	0.6	11%[38.3 µM]
- COc1ccc(OCc2nn3c(Cn4cnc5ccccc54)nnc3s2)cc1
 : 3.7	-13	-13	1	1.3	15%[38.3 µM]
- O=C(NCc1ccccn1)c1ccc2ccccc2n1
 : 2.2	0	7	-3	0.4	1.4%
- Cc1cnc(C(=O)OCC(=O)Nc2ccc(C)c(S(=O)(=O)N3CCCCC3)c2)cn1
 : 0.9	-3	7	-5	0.0	5.0%
- Cn1c(=O)n(Cc2ccc(Cl)cc2)c2ccccc21
 : -0.8	5	1	-12	0.5	/
- O=C(O)CCCC(=O)N1N=C(c2ccccc2)CC1c1ccc2c(c1)OCO2 (configuration not stated)
 : 1.3	4	11	-8	-0.3	1.2%
- CC(C)Nc1nc(NC(C)C)nc(SCC(N)=O)n1
 : -5.1	-4	0	-9	-0.8	-0.3%
- O=C(COC(=O)CNC(=O)c1ccccc1F)Nc1nnc(-c2ccccc2)o1
 : -1.8	?	?	2	-0.2	-1.6%
- CC(C)Oc1ccc(/C=N/NC(N)=S)cc1
 : -0.4	-13	-3	-5	0.1	1.8%
- CS(=O)(=O)N1CCCC(C(=O)Nc2c(F)cccc2F)C1 (configuration not stated)
 : -1.1	-13	5	-3	0.0	3.7%
- Cc1cc(NC(=O)c2cccnc2)ccc1Br
 : -2.5	2	2	0	0.0	2.5%
- COCc1cc(=O)[nH]c2cc(NC(=O)C(C)(C)CCl)c(C)cc12
 : 1.0	2	8	0	-0.4	1.8%

The results go on.
| compound | D2 agonist | Six1-Eya2 inh | CtBP-E1A blk | D2 PAM | TRPML1 agonist | PINK1 modulator |
| --- | --- | --- | --- | --- | --- | --- |
| Cc1ccc(O)c(N=Cc2cccs2)c1 | 12 | -5 | 0 | 14 | 0.0 | -0.7% |
| CCCOP(=O)(OCCC)c1c([N+](=O)[O-])cc(C(F)(F)F)cc1[N+](=O)[O-] | 7.8 | 0 | -3 | ? | 0.7 | 3.5% |
| COc1ccc(NC(=O)CN2CCN(c3ccccc3Cl)CC2)cc1 | -2.9 | 0 | -3 | -15 | -1.6 | -0.7% |
| Cn1nnc(NC(=O)c2cccs2)n1 | -2.9 | 2 | 3 | -6 | 0.4 | 0.6% |
| CC(C)(C)C(=O)CN1C(=O)NC2(CCCc3ccccc32)C1=O (configuration not stated) | 2.8 | -1 | 7 | -5 | 0.6 | 2.1% |
| Cc1ccc(OCCNC(=O)CCc2nc3sc4c(c3c(=O)[nH]2)CCCC4)cc1 | -3.4 | -2 | 1 | -16 | 2.6 | 4.9% |
| CC1CCCCN1CCCNC(=O)Cn1ncc2c([nH]c3ccccc32)c1=O (configuration not stated) | -5.7 | -2 | 0 | -25 | -0.1&3.0 | -0.8%&0.1% |
| COc1ccccc1C(=O)NCC(=O)NCc1cc(=O)n(C)c(=O)n1C | 2.0 | -2 | / | 0 | 0.3 | 2.6% |
| Nn1cnnc1SC1CCCCC1NS(=O)(=O)c1ccccc1 (configuration not stated) | 1.0 | 16 | -4 | -4 | 0.9 | 2.9% |
| Cn1c(=O)c2c(ncn2CC(O)CNc2cccc(Cl)c2)n(C)c1=O (configuration not stated) | 0.9 | 119 | 163 | 0 | -0.7 | 2.8% |
| CCCNC(=O)CS(=O)(=O)Cc1nc(-c2cccc(OC)c2)oc1C | -3.2 | 1 | -17 | -4 | 2.8 | 0.6% |
| O=C(NC1(C(F)(F)F)NC(=O)N(Cc2ccco2)C1=O)c1cccnc1 (configuration not stated) | -2.1 | -9 | -5 | -11 | -0.1 | 0.7% |
| COc1ccccc1N(C(=O)Cn1nnc(-c2ccc(C)o2)n1)C(C(=O)NC1CCCC1)c1ccncc1 (configuration not stated) | -2.9 | 6 | 0 | -7 | 0.4 | 1.4% |
| COc1cc(/C=C2/C(=O)CNC2=O)ccc1O | -1.0 | 1 | 1 | -1 | 4.8 | -1.0% |
| Cn1c(SCC(=O)NC(c2ccccc2)c2ccccc2)nnc1-c1cccs1 | -3.7 | 6 | -4 | -20 | 4.3 | -1.0% |
| C=CCn1c(C)cc(C2=NNC(=NCC)SC2)c1C | 3.0 | 0 | -24 | -14 | -0.5 | 0.4% |
| COc1ccc([N+](=O)[O-])cc1NC(=S)NC(C)=O | 0.7 | 3 | / | -8 | -0.2 | 0.3% |
| O=C(O)C1C2C=CC(C2)C1C(=O)OCc1ccccc1 (configuration not stated) | -2.8 | -3 | -1 | -6 | -0.3 | 2.0% |
| CCCN(c1ccccc1C(=O)O)S(=O)(=O)c1ccc2c(c1)n(C)c(=O)n2C | -2.8 | -1 | / | 0 | -0.4 | 0.8% |
| Cc1c(C)c2ccc(OC(C)C(=O)NCc3ccccn3)cc2oc1=O (configuration not stated) | -3.5 | -3 | -1 | -5 | -0.9 | 0.5% |
| Cc1cccc2c(CCNC(=O)c3ccc([N+](=O)[O-])cc3)c[nH]c12 | -0.5 | -17 | -18 | 0 | -0.4 | -1.6% |
| O=C1CCN(Cc2ccccc2)S(=O)(=O)c2ccc(C(F)(F)F)cc21 | 0.3 | 4 | 11 | -5 | -0.3&-0.2 | 4.6% |
| O=C(Nc1ccccc1N1CCN(C(=O)c2ccccc2)CC1)c1ccc([N+](=O)[O-])o1 | 9.9 | -28 | -10 | 10 | 3.3 | -0.5% |
| CCN(CC)C(=O)COCc1cc(-c2ccc3c(c2)OCO3)on1 | 3.5 | 0 | / | -6 | -0.4 | 1.6% |
| COc1ccc2ccccc2c1CN1CCCC(CO)C1 (configuration not stated) | 2.6 | 6 | 4 | -17 | -0.1 | 0.0% |
| O=[N+]([O-])c1ccc(NC(=S)N2CCCC2)cc1 | -2.2 | 4 | / | -4 | -0.7 | 1.8% |
| CCCNc1nc(C)c(C(C)=O)cc1C#N | -2.4 | 3 | 8 | 0 | -0.5 | 6.9% |

Entries of single compounds as entered above. Screens in order: D2 agonist, Six1-Eya2 inh, CtBP-E1A blk, D2 PAM, TRPML1 agonist, PINK1 modulator
`CCN(CC)C(=O)COCc1cc(-c2ccc3c(c2)OCO3)on1` is listed with 3.5, 0, /, -6, -0.4, 1.6%
`COc1ccc2ccccc2c1CN1CCCC(CO)C1` (configuration not stated) is listed with 2.6, 6, 4, -17, -0.1, 0.0%
`CCCNc1nc(C)c(C(C)=O)cc1C#N` is listed with -2.4, 3, 8, 0, -0.5, 6.9%

Screening data as filed in PubChem BioAssay.
